# Beta apoptosis = inhibitors of cytokine-induced beta cell apoptosis, primary screen, luminescence | AID 435005, 2010 | protection from apoptosis, % (concentration not given with the values) | INS-1E cytokine-induced death, ATP luminescence, 48 h; percent of positive-control rescue, neutral wells zero | 300,000 tested, 0.8% active;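 active = all replicates at 75% or more, or half of them and the mean; inconclusive = half reach 75% but not the mean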;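 also: 0% = cytokine-treated negative control wells and 100% = positive control rescue; higher means more ATP so stronger rescue from cytokine killing; wells of about 40 µL received 100 nL stock; the first replicate is given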
# Ecoli rRNA inh = reduced GFP signal of wild-type E. coli, primary screen, bacterial rRNA inhibitor project, GFP/RFP fluorescence, OD600, single point | E. coli WT GFP vs humanized-ribosome RFP mutants, 24 h; stronger effect = lower value; DMSO median 0, no signal -100 | GFP signal change (wild-type ribosome), % (no concentration beside the values) | 350,000 tested, 1.6% active | AID 720706, 2013;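 active = significant combined selectivity score with lowered wild-type GFP, culture density cut under 30%, mutant RFP and density less affected; inactive = any of these conditions unmet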; also: one replicate is shown; some compounds called inactive have numbers as strong as hits
# AF4-AF9 inh = inhibitors of AF4 peptide binding to AF9, primary screen, biochemical, AlphaScreen, biotin-AF4 peptide, FLAG-AF9, single point. AID 651704, 2012. inhibition, % at 10 µM. Protein AF-9 (Homo sapiens), P42568. 350,000 tested, 0.47% active;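 active = every replicate reaching a set inhibition limit, whatever the replicate mean, cut at about 25% in these data; inconclusive = mean inhibition reaches that limit but some replicates miss it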;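 also: 0% = plate neutral control median and 100% = total signal loss; the record names both 10 and 1 µM as test concentration; the first replicate is given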
# Target sequence (P42568 whole entry, looked up): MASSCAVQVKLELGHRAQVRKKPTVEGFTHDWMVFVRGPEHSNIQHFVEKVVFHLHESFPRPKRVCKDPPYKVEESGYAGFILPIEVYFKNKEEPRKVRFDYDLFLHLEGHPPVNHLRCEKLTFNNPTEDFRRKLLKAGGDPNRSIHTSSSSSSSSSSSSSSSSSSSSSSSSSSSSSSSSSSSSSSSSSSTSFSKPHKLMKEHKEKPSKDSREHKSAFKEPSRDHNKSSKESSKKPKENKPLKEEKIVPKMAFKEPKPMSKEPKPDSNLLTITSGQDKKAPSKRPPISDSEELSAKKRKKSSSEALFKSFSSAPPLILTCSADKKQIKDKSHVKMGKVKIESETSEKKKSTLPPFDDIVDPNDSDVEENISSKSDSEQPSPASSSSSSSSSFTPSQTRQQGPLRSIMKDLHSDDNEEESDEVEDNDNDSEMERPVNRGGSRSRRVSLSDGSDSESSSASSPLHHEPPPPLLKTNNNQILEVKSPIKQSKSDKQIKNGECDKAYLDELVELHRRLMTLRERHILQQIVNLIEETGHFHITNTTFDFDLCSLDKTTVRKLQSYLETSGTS
# Calb FLC = C. albicans growth inhibition with fluconazole, primary screen, CaCi-2 strain, Alamar Blue fluorescence; C. albicans CaCi-2 (fluconazole-resistant clinical isolate) + fluconazole, 48 h; growth inhibition, % (concentration not given with the values); 300,000 tested, 0.57% active; AID 1979, 2009;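 active = most replicates above 75%; inconclusive = exactly half above 75%; inactive = most below 75%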;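 also: all wells also contain fluconazole at 8 µg/ml as a sub-toxic cotreatment; 0% = median of DMSO wells and 100% = median of geldanamycin control wells; wells of about 8 µL received 7.5 nL stock; the first replicate is given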
# A1 inh = caspase 3/7 activation in MEF A1-2A-BIM cells, primary screen, A1 inhibitor project, cell-based, luminescence, HTS; Caspase-Glo 3/7 luminescence, 3 h; percent of clofoctol response, vehicle zero; caspase activation, % (no concentration beside the values); 330,000 tested, 0.066% active; AID 2462, 2010;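 active = over half of replicate activation scores above 10%, or exactly half above 10 with the replicate mean above 10; inconclusive = replicate mean below 10 yet half the replicates above 10; inactive = over half of replicates below 10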;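 also: wells of about 30 µL received 50 nL stock; many hits fall short of the cut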
# RanGTP-Impb inh = inhibitors of RanGTP-importin-beta interaction, primary screen, biochemical, FRET, CFP-Ran, YFP-importin-beta, homogeneous; Ran GTPase (GTP-bound) - importin-beta complex; cell-free CFP-Ran/YFP-importin-beta FRET ratio; inhibition, % (no concentration beside the values); 300,000 tested, 1.1% active;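 active = most replicates above 15%; inconclusive = exactly half above 15%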;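 also: 0% = DMSO wells and 100% = Ran loaded with GDP instead of GTP; wells of about 40 µL received 100 nL stock; the first replicate is given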
# T cruzi inh = inhibitors of intracellular T. cruzi growth, primary screen, luminescence, NIH3T3 host cells | inhibition, % (concentration not given with the values) | T. cruzi beta-gal in NIH3T3, 90 h | 300,000 tested, 1.4% active;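 active = mean inhibition across valid replicates above about 55%, limit read from the data; inconclusive = mean below that limit but half or more replicates reach it; inactive = mean below it, under half of replicates reach it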;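 also: signal also drops with host cell toxicity which is not excluded here; 0% = plate median of DMSO wells and 100% = zero luminescence signal; higher percent means less beta-gal luminescence so fewer parasites; stock transfer was 50 nL into about 50 µL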
# Vif TR-FRET = inhibitors of Vif binding to APOBEC3G peptide, primary screen, biochemical, TR-FRET, GST-Vif 1-94, biotin-A3G peptide, dose response retest (AID 1117319); Virion infectivity factor (Human immunodeficiency virus type 1 group M subtype B (isolate …; TR-FRET GST-Vif / biotin-A3G peptide binding; higher % means a stronger effect; test concentration not given here; strong numbers were not always called active; one-dose inhibition, %; IC50 in µM for titrated hits; 260,000 tested, 0.57% active;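 active = above the screen mean plus three standard deviations and confirmed in dose response; inconclusive = results disagree or hit not tested in dose response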;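 also: Vif residues 1-94 fused to GST binding biotinylated APOBEC3G peptide 110-148; 0% = full assay without inhibitor and 100% = GST in place of GST-Vif; retest series ran down from 100 µM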
# Ecoli rRNA inh OD600 = further read-out of Ecoli rRNA inh, marked with its call; OD600 change, %; measured here: OD600 growth;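 optical density of the mix in the first replicate; 0 = DMSO median and -100 = no signal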
# Ecoli rRNA inh RFP = further read-out of Ecoli rRNA inh, marked with its call; RFP signal change, %; measured here: RFP humanized mutant strains;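 first replicate; 0 = DMSO median and -100 = no signal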
# The depositor's hits bear a star; ? = inconclusive; nt = no result given.
nr	molecule	Ecoli rRNA inh OD600	Ecoli rRNA inh RFP	Calb FLC	Ecoli rRNA inh	A1 inh	Beta apoptosis	T cruzi inh	AF4-AF9 inh	Vif TR-FRET	RanGTP-Impb inh
1	COc1ccccc1NS(=O)(=O)c1cccc(C(=O)N/N=C/c2c(CO)cnc(C)c2O)c1	-26	0.9	nt	-15	-0.6	0	nt	5.6	nt	nt
2	O=C1Nc2ccccc2N(O)N1c1ccc(S(=O)(=O)N2CCCCCC2)cc1	nt	nt	-21	nt	-0.2	0	-3	nt	7%	1.0
3	Cc1cn(C2OC(COC(=O)c3ccccc3)C(OC(=O)c3ccccc3)C2OC(=O)c2ccccc2)c(=O)[nH]c1=O (stereo not given)	nt	nt	21	nt	nt	nt	2	nt	-6%	-2.3
4	CCCCC(NC(=O)Cc1c(C)c2cc3c4c(oc3cc2oc1=O)CCCC4)C(=O)O (stereo not given)	-34	-5.0	7	-19	0.7	2	-1	-4.5	-1%	7.0
5	O=C(N/N=C/c1cc2ccccc2nc1Cl)c1ccncc1	-7	2.6	-1	0	0.3	1	-10	-3.2	-4%	1.6
6	CCOc1ccccc1C(=O)N1CCN(C(c2ccccc2)c2ccccc2)CC1	nt	nt	12	nt	0.2	-4	30	nt	-4%	-2.8
7	O=C(CCNS(=O)(=O)c1ccc(Br)s1)Nc1ccc(Cl)cc1	nt	nt	36	nt	-0.6	-4	58*	nt	-2%	2.7
8	Cc1ccc[n+](CC(=O)c2ccc(Br)cc2)c1C	12	2.5	0	27	-0.1	-10	-11	-2.9	nt	-0.9
9	CC(C)=NNc1nc(-c2ccc([N+](=O)[O-])cc2)cs1	-13*	-6.3*	-41	-34*	-0.9	-1	23	-1.2	8%	-2.5
10	O=C(c1cc(COc2ccccc2)on1)N1CCCC(CN2CCOCC2)C1 (stereo not given)	0	0.2	8	6	0.8	-6	-8	-1.7	nt	-0.4
11	O=C(Nc1c[nH]c(=O)[nH]c1=O)c1cc([N+](=O)[O-])cc([N+](=O)[O-])c1	2	-2.2	-7	8	1.8	-5	3	-0.6	-5%	2.5
12	COC(=O)C(NC(=O)CCc1c(C)nc2ncnn2c1C)C(C)C (stereo not given)	nt	nt	-6	nt	-0.2	3	2	nt	-6%	1.6
13	COc1ccc([C@H]2CC(=O)C=C(c3ccc(SC)cc3)C2)cc1	8	-6.0	nt	16	0.1	-9	nt	-2.9	nt	nt
14	COc1ccc(-c2cc(C(=O)N3CCN(c4ccccc4F)CC3)c3ccccc3n2)c(OC)c1	nt	nt	nt	nt	0.4	-11	34	-8.3	nt	nt
15	CS(=O)(=O)N1N=C(c2ccccc2)CC1c1ccc2c(c1)OCO2 (stereo not given)	nt	nt	-23	nt	-0.1	-2	-30	nt	0%	-1.0
16	CCc1ccc2c(c1)C(=O)C(=O)N2CC(=O)Nc1ccc(NC(=O)c2ccccn2)cc1	15	-0.3	3	16	1.1	-3	-2	-0.4	-3%	-4.1
17	O=C(COC(=O)C1=COCCO1)Nc1cc(C(F)(F)F)ccc1Cl	3	0.0	nt	10	-0.3	-4	nt	-0.3	nt	nt
18	COc1ccc(-c2cc(C(=O)N3CCN(c4ccccc4OC)CC3)no2)cc1	nt	nt	3	nt	0.3	-2	13	2.1	nt	5.7
19	COc1cc(CN2CCN(CC#Cc3ccccc3)CC2CCO)cc(OC)c1 (stereo not given)	-14	2.8	-1	-10	-1.7	3	-1	1.0	2%	4.4
20	Cc1ccc(C(NC(=O)NCCCN2CCOCC2)=C(Cl)Cl)cc1F	nt	nt	-4	nt	0.0	-7	-25	nt	-2%	-1.5
21	O=C(COC(=O)CSc1ccccc1)NNC(=O)c1ccc([N+](=O)[O-])cc1	-35	-6.5	2	-37	0.5	0	0	-6.3	11%	-0.1
22	O=C(COC(=O)/C=C/c1cccc(F)c1)Nc1ccccc1-c1ccccc1	11	3.8	-33	5	-0.4	-7	-9	2.5	nt	4.5
23	CCOC(=O)c1c(CN2CCCCC2)n(C)c2cc(Br)c(OC)cc12	nt	nt	1	nt	-0.1	10	38	nt	-14%	-4.6
24	CC(NS(=O)(=O)c1ccc(CCC(=O)NCC2CCCO2)cc1)c1ccccc1 (stereo not given)	nt	nt	9	nt	1.1	5	-4	nt	nt	2.2
25	C=CCSc1nnc(NC(=O)c2nc(SCC)ncc2Cl)s1	-39	-24	30	-39	0.5	6	-8	0.3	3%	3.4
26	Nc1nc(SCC(=O)NC2CCCCCC2)[nH]c(=O)c1-c1ccccc1	nt	nt	-9	nt	-0.2	0	-10	nt	2%	0.9
27	COc1ccc(C(=O)NC2CC2)cc1OC1CCN(C/C=C/c2ccccc2)CC1	11	3.6	0	9	-0.1	4	18	4.1	nt	-2.4
28	NC(=O)C(c1ccc(Cl)cc1)c1ncc(C(F)(F)F)cc1Cl (stereo not given)	nt	nt	9	nt	0.5	-1	4	nt	0%	-4.2
29	COc1ccc(NC(=O)C2CCN(c3nc(C)cc(C)n3)CC2)cc1	nt	nt	-44	nt	1.2	-3	-2	nt	0%	5.1
30	CCCCNC(=S)Nc1cc([N+](=O)[O-])ccc1C	nt	nt	5	nt	0.2	nt	12	nt	2%	3.8
31	O=[N+]([O-])c1cc(C(F)(F)F)ccc1N/N=C/c1cc2ccccc2nc1Cl	nt	nt	2	nt	0.1	-6	2	nt	2%	-3.0
32	COc1cc(/C=C2/NC(=O)NC2=O)cc(Br)c1OCc1ccc(C(=O)O)cc1	-36	21	-6	-28	0.0	-2	-15	0.0	5%	-1.9
33	CCOc1ccccc1NC(=O)CN1C(=O)COc2ccc(S(=O)(=O)N3CCOCC3)cc21	3	0.1	43	5	-0.7	-3	12	2.8	nt	1.6
34	NS(=O)(=O)c1ccc(NC(=O)c2cccc(N3C(=O)c4ccccc4C3=O)c2)cc1	9	-1.9	5	8	-0.3	-2	-22	-2.3	nt	1.0
35	CC(C)(C)OC(=O)N[C@H](C(=O)OC(C)(C)C)c1ccc(C(F)(F)F)cc1	12	-0.1	nt	12	-1.0	-3	nt	-3.4	nt	nt
36	COC(=O)CCCCC1SCC2NC(=O)NC21O (stereo not given)	22	5.2	-5	17	0.0	-1	-52	54*	?	3.1
37	CC(C)Nc1nc(Oc2ccc(Cl)cc2Cl)cc(C(F)(F)F)n1	nt	nt	-3	nt	nt	2	10	nt	5%	-1.5
38	NC(Cc1ccccc1)C(=O)N1CCCCC1 (stereo not given)	18	-0.8	10	10	1.6	-5	-7	-9.9	2%	4.9
39	CCOc1ccccc1N(CC(=O)NC1CCCCC1)C(=O)CNC(=O)c1ccco1	nt	nt	-41	nt	1.7	-6	7	nt	-6%	8.2
40	COc1ccc(NCc2nnc(SCc3ccccc3)n2-c2ccc(OC)cc2)cc1	nt	nt	6	nt	0.0	-18	23	nt	8%	-1.8
41	CCN(C(=O)c1cccs1)C1CCS(=O)(=O)C1 (stereo not given)	10	-2.5	1	8	nt	nt	0	-5.9	-1%	-2.8
42	COC(=O)c1cc2sc(Cl)cc2n1CC(=O)NCC1CCCO1 (stereo not given)	nt	nt	3	nt	0.7	nt	6	nt	-9%	-1.1
43	COc1ccccc1C(=O)Nc1ccnn1C1CCN(CCCC2CCCC2)CC1	4	2.2	3	-6	1.0	4	8	-8.6	nt	-2.6
44	COc1cc(NC(=S)N2CCC(C(O)(c3ccccc3)c3ccccc3)CC2)cc(OC)c1	-8	-3.5	7	-7	-0.1	-10	-30	2.6	nt	-4.3
45	Cc1nn(C(C)C(=O)NCCCc2ccccc2)c(=O)c2nn(-c3ccccc3)c(C)c12 (stereo not given)	-13	1.3	0	-15	0.0	2	14	2.8	nt	0.8
46	Cc1ccccc1C(=O)Nc1ccccc1C(=O)NCC(C)C	nt	nt	28	nt	-0.1	-5	5	-6.7	-10%	-2.6
47	O=C(NCCNC1CCC(c2ccccc2)CC1)c1ccc(F)cc1 (stereo not given)	-10	1.1	?	9	0.7	1	30	3.8	-13%	-4.6
48	O=C(c1ccc(F)cc1)c1c[nH]c(C(=O)NCCCN2CCOCC2)c1	nt	nt	3	nt	0.0	-3	-13	nt	-4%	-2.9
49	O=C(OCC(=O)c1c[nH]c2ccccc12)c1ccc([N+](=O)[O-])s1	-82	-21	6	-63	-0.6	-2	61*	10	?	3.1
50	Cn1c(NC(=O)C2CCCO2)cc(=O)n(C)c1=O (stereo not given)	-7	-1.0	3	-4	0.7	2	0	2.9	3%	6.4
51	Cn1ncc(Cl)c1C(=O)N1CCN(C(=O)c2ccco2)CC1	7	-1.1	-3	-1	nt	nt	-3	-5.3	1%	-4.8
52	N#C/C(=C/Nc1ccccc1)c1ccsc1	nt	nt	0	nt	-0.3	12	0	nt	8%	3.3
53	CS(=O)(=O)c1nncn1-c1ccccc1	nt	nt	3	nt	-1.3	-5	-12	nt	30%	1.6
54	O=C(CSc1nnc(CNC(=O)c2ccccc2F)o1)c1ccc(Cl)cc1	nt	nt	8	nt	1.0	7	-12	nt	23%	6.7
55	Cc1ccc(C(C)C)c(OCC(=O)NNC(=O)Nc2ccccc2)c1	-47	-5.6	-2	-36	-0.1	nt	50	-3.4	nt	0.3
56	Cc1nnc(Nc2ccc3c(c2)ncn3C)c2ccccc12	nt	nt	2	nt	1.6	-2	4	nt	28%	5.7
57	CC(C)(C)NC(=O)NC(=O)CSc1nnc(COc2ccccc2Cl)o1	nt	nt	2	nt	0.3	-5	-6	nt	2%	0.8
58	CC(NC(=O)C(=O)N1CCCCC1)C(c1cccs1)N1CCN(C)CC1 (stereo not given)	6	-3.2	8	4	-0.2	-3	-15	2.4	nt	5.4
59	COc1ccc(-c2csc3ncnc(N4CCN(c5ccccc5[N+](=O)[O-])CC4)c23)cc1	nt	nt	6	nt	-0.6	6	25	nt	nt	0.1
60	CC1(C)CC(CCN(Cc2ccccc2)C(=O)c2ccco2)(c2ccccc2)CCO1 (stereo not given)	-9	6.9	4	-7	0.3	3	33	9.5	nt	?
61	CCN1CCN(c2ncnc3c2cnn3-c2ccc(C)cc2C)CC1	0	-2.4	-6	5	-0.3	1	-7	-1.0	nt	3.3
62	Cc1ccc(-n2c(-c3cnccn3)n[nH]c2=S)c(Br)c1	4	1.6	5	9	0.1	-9	-8	-2.8	7%	-0.5
63	COc1cc(NC(=O)c2cccc([N+](=O)[O-])c2)ccc1NC(=O)c1cc2ccccc2o1	5	-0.6	0	2	0.6	11	0	-2.5	nt	1.5

# An excerpt; count on the stated rates, not on these rows.
